From PubChem BioAssay
StopGo reporter – FMDV 2A StopGo reporter, luciferase signal | human cells with a luciferase reporter of 2A StopGo recoding; control for the full effect not named in the record | Potency, µM (top dose mostly 57.9 µM), for the others: at the top dose signal change, negative = less light | actives 1.2% (n = 410,000); active = well fitted falling curve with a large enough effect; inconclusive = small, poorly fitted or top-dose-only effect; inactive = no such curve, though single readings can be large or run the other way; tested in HEK293T cells; also: nearly all actives have a fitted effect of over 45% in size; luciferase light after 4 h
RE007 growth inh – less growth of the S. pombe RE007 Vpr strain; actives 0.21% (n = 360,000); AID 651644; Potency, µM (highest dose often 92.2 µM), without a hit: at the top dose activity change, negative = less growth; S. pombe RE007 Vpr strain, BacTiter-Glo ATP luminescence, 24 h; control for the full effect not named in the record; active = well fitted falling curve with a large enough effect; inconclusive = small, poorly fitted or top-dose-only effect; inactive = no such curve, though single readings can be large or run the other way;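 also: nearly all actives have a fitted effect of over 50% in size; the assay follows cell death caused by Vpr and the record does not say whether a fall means rescue or toxicity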
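Fission yeast strain RE007, carrying one chromosomally integrated HIV-1 vpr copy, was seeded at OD 0.01 in PMG+AL medium with 23 nL pinned compound. After 24 h at 30 °C and 99% humidity, viability was read by BacTiter-Glo luminescence.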
Numbers without * were called inactive; u = inconclusive; & = joins results of further samples; [ ] = remark or other dose. % is scaled to controls: 0 for no effect and ±100 for the full control effect; potency is read from the fitted curve at half-maximal effect. This is a subset (hit frequency here may not be typical).

SMILES	StopGo reporter	RE007 growth inh
COc1ccc(NC(=O)C2(C)CCN2Cc2ccc(OC(F)(F)F)cc2)cc1OC (stereo not given)	u	-5%
CC1=C(C(=O)N2CCOCC2)CC(CC(=O)NCc2cccs2)C(=O)N1Cc1ccc(C(C)(C)C)cc1 (stereo not given)	-22%	8%
COc1cc(OC)cc(C2=Cc3ccc(OC)cc3C(CC(C)=O)N2c2ccc(-c3cccs3)cc2)c1 (stereo not given)	-19%	-8%
CC1CC(C)(C)CC2(C1)NC(=O)N(CC(=O)Nc1cc(C(F)(F)F)ccc1N1CCCCC1)C2=O (stereo not given)	-24%	-5%
CC(C)(C)c1ccc(CC(=O)N2CCC2(C)C(=O)NS(=O)(=O)c2cccc(OC(F)F)c2)cc1 (stereo not given)	-8%	-7%
CCOc1ccccc1C(=O)NCC(=O)N(C)CC(=O)Nc1ccc(N2CCOCC2)cc1	3%	4%
COc1ccc(CNC(=O)CC[C@H]2O[C@@H](n3cnc4c(NC(=O)c5ccccc5)ncnc43)[C@H](O)[C@@H]2O)cc1	-7%	4%
O=C(O)c1ccc(CN2C[C@@H](CO)O[C@@H](n3cnc4c(N5CCOCC5)ncnc43)C2)cc1	-16%	-1%
Nc1ncnc2c1ncn2[C@@H]1O[C@H](C(=O)NS(=O)(=O)c2cccc(F)c2)[C@@H](O)[C@H]1O	-15%	8%
COc1cccc(-c2nc(CN3CCN(C(=O)c4ccco4)CC3)c(C)o2)c1OC	2%	6%
c1ccc2c(c1)CN1C(=N2)COc2ccccc2C1c1nc2ccccc2[nH]1 (stereo not given)	22%	-12%
COc1cc(OC)c(C(=O)c2ccccc2[N+](=O)[O-])c(OC)c1	-5%	-20%
CC(CNCCCn1ccc(NC(=O)OCc2ccccc2)nc1=O)c1ccccc1 (stereo not given)	-14%	-16%
CCCCCC(=O)N1C[C@@H](O)[C@H](n2cc(C3CC3)nn2)C[C@@H]1c1ccc(OC)cc1	0%	6%
CCc1nc2c(OCc3ccc(F)c(F)c3)cccn2c1N(C)C(=O)C(C)C	-27%	6%
CCCCN1CC(COCc2ccccc2)Oc2cccc(OCc3ccc(OC)cc3)c2S1(=O)=O (stereo not given)	-6%	3%
CCOc1ccccc1-c1cncc(NC)n1	-20%	-16%
COc1ccc(-c2csc(C(O)c3ccc(F)c(OC)c3)n2)cc1 (stereo not given)	u	6%
CCC(CC)C(=O)N(C)c1c(C)nc2c(OCCC3CCCCC3)cccn12	u	-17%
COc1ccccc1NC(=O)N(C)C[C@H]1Oc2ncc(C#CCN(C)C)cc2C(=O)N([C@H](C)CO)C[C@H]1C	-9%	-12%
C[C@]1(OC(=O)/C=C/c2ccccc2)C[C@@H](O)[C@]2(O)C=CO[C@@H](O[C@@H]3O[C@H](CO)[C@@H](O)[C@H](O)[C@H]3O)[C@@H]21	-26%	5%
CCc1c(O)nc(SCC(=O)Nc2c(C)cccc2C)n(-c2ccc(F)cc2)c1=O	-22%	9%
O=C(Cn1c(Cn2c(-c3cnccn3)nc3ccccc32)nc2ccccc21)c1ccc(OC(F)(F)F)cc1	-18%	3%
COc1ccc(C(=O)NNC(=O)Cn2nc(C)cc2C)cc1S(=O)(=O)N1CCOCC1	0%	10%
CCCNC(=O)C1(C)CCCN(Cc2cccc(C#N)c2)C1 (stereo not given)	0%	-13%
CN1C[C@@H]2[C@@H]3C(=O)N(Cc4ccccc4)C(=O)[C@@H]3[C@](C)(C1=O)N2C(=O)c1ccc(C(F)(F)F)cc1	-12%	-16%
O=C(CC[C@H]1O[C@@H](n2cnc3c(NC(=O)c4ccccc4)ncnc32)[C@H](O)[C@@H]1O)NCC1CCCO1 (stereo not given in full)	13%	22%
NC(Cc1ccc(C(F)(F)F)cc1)c1csc(NC(=O)NCCc2ccccc2)n1 (stereo not given)	u	9%
O=C(C(=Cc1ccc(F)cc1)C(=O)c1ccccc1)c1ccccc1	u	2%[18.4 µM]
COC(=O)CCC(=O)N1CCC(Oc2cccc(C(=O)NCc3ccccn3)c2)CC1	-26%	-3%
COCCCn1cc(CN2CC(N3CCN(C)CC3)CS2(=O)=O)nn1 (stereo not given)	-18%	2%
O=C(NC1CCCCC1)C(c1ccnc2ccccc12)n1c(=O)c(-c2ccco2)nc2ccccc21 (stereo not given)	-18%	-7%
C[C@H]1CN([C@@H](C)CO)C(=O)CCCn2cc(nn2)CO[C@@H]1CN(C)C(=O)Nc1ccnc(N2CCOCC2)c1	-2%	-1%
COC(=O)[C@@]12C[C@@H](CC(=O)NCc3cccc4ccccc34)C(=O)N(Cc3ccc4c(c3)OCO4)C1=CCC(C)(C)C2	-14%	8%
Cc1csc(CN(C)C(=O)CC2C(=O)NCCN2Cc2ccccc2C)n1 (stereo not given)	4%	4%
N#CCCN(C(=O)Nc1ccc(Cl)c(Cl)c1)C1CCCCC1	u	20%

Gathered by group, the compounds so far containing a furan ring, fused or not (2)
SMILES	StopGo reporter	RE007 growth inh
COc1cccc(-c2nc(CN3CCN(C(=O)c4ccco4)CC3)c(C)o2)c1OC	2%	6%
O=C(NC1CCCCC1)C(c1ccnc2ccccc12)n1c(=O)c(-c2ccco2)nc2ccccc21 (stereo not given)	-18%	-7%

The list continues:
SMILES	StopGo reporter	RE007 growth inh
CCOC(=O)C1=C(C)NC(=O)NC1C(C)C (stereo not given)	-6%	4%
COc1ccc(-c2csc(C(O)c3ccc(F)cc3)n2)cc1OC (stereo not given)	-12%	11%
COc1ccccc1S(=O)(=O)N(C)C[C@H]1Oc2cc(C#CCC3CCCC3)ccc2S(=O)(=O)N([C@H](C)CO)C[C@H]1C	17%	5%
O=C(c1ccc(CNS(=O)(=O)c2ccc(F)cc2)cc1)N1CCCCCC1	33%[activator]	-2%
Cc1ccc(S(=O)(=O)N(C)N=O)cc1	-25%	6%[18.4 µM]
CNc1ccccc1C(=O)OCC(=O)N1CCc2ccccc2C1	40%[activator]	-12%
CCOC(=O)Nc1cc(OC)cc2ccc(C)nc12	-18%	7%
Cc1cccc(C)c1-n1nnnc1C(c1ccnc2ccccc12)N(CCN(C)C)Cc1ccccc1 (stereo not given)	u	-29%
OC[C@@H]1CN(Cc2ccc3c(c2)OCO3)C[C@H](n2cnc3c(NC4CCC4)ncnc32)O1	-13%	4%
COc1cc(/C=C/c2nc3ccccc3c(=O)[nH]2)ccc1O	32%[activator]	4%
O=C(NCc1ccccn1)[C@@H]1CCCN1C(=O)[C@@H]1CCCN1C(=O)c1c(F)cccc1F	-23%	-2%
COC(=O)c1cnc(NC(=O)C2(C)CCCN(C(C)=O)C2)s1 (stereo not given)	6%	-10%

Whole records, looked up by structure.
`COc1cc(/C=C/c2nc3ccccc3c(=O)[nH]2)ccc1O` is listed as StopGo reporter = 32%[activator]; RE007 growth inh = 4%
`CCOC(=O)Nc1cc(OC)cc2ccc(C)nc12` is listed as StopGo reporter = -18%; RE007 growth inh = 7%

Additional entries:
SMILES	StopGo reporter	RE007 growth inh
CCCNC(=O)C1(C)CCCN(Cc2ccccc2Cl)C1 (stereo not given)	-2%	0%[18.4 µM]
C[C@@H]1CN([C@H](C)CO)S(=O)(=O)c2ccc(Br)cc2O[C@@H]1CN(C)Cc1ccc(C(=O)O)cc1	-19%	-2%
O=C(Nc1cccc2ccccc12)c1ccc2sc([C@@H]3O[C@H](CO)[C@H](O)[C@H](O)[C@H]3O)nc2c1	0%	1%[18.4 µM]
COc1ccc(C2OC(CCc3ccccc3)Cc3[nH]c(=S)[nH]c(=O)c32)cc1 (stereo not given)	-19%	3%
C[C@H](NC(=O)c1nc[nH]c1C(=O)N(C)CCO)c1ccccc1	-8%	1%
CCCCN1CC(N2CCN(Cc3cccc(C)c3)CC2)CS1(=O)=O (stereo not given)	-10%	4%
Cc1c(C#N)c2n(c1C)CCCC(=O)N2	-12%	3%
CC(C)C(=O)N1CCCC1(C)C(=O)Nc1ccc2c(c1)OCO2 (stereo not given)	-17%	14%
CC(=O)Nc1ccc(-c2ccnc3c2CC(C(=O)Nc2cccc(C(F)(F)F)c2)O3)cc1 (stereo not given)	-8%	0%[18.4 µM]
Cc1cc(C)cc(-n2nnc3ccccc3c2=O)c1	35%[activator]	-16%
Cc1cc(C)n2c(Nc3ccc4c(c3)OCCO4)c(C(C)C)nc2n1	-16%	u
COc1ccc(C(=O)c2[nH]c(N)c(C(=O)NCCc3c[nH]c4ccccc34)c2-c2ccc(Cl)cc2)cc1	-18%	-14%

Given with bars between the fields: part of the list above
mol | StopGo reporter | RE007 growth inh
Cc1c(C#N)c2n(c1C)CCCC(=O)N2 | -12% | 3%
CC(C)C(=O)N1CCCC1(C)C(=O)Nc1ccc2c(c1)OCO2 (stereo not given) | -17% | 14%
CC(=O)Nc1ccc(-c2ccnc3c2CC(C(=O)Nc2cccc(C(F)(F)F)c2)O3)cc1 (stereo not given) | -8% | 0%[18.4 µM]

(more compounds)
SMILES	StopGo reporter	RE007 growth inh
CCOC(=O)C1Nc2ccc(C(F)(F)F)cc2C2c3ccccc3CC12 (stereo not given)	28µM*	-17%
C=CCNC(=O)c1cc(-c2ccccc2)sc1N	13%	-9%
O=C1[C@H](Cc2ccccc2)NCC=CC[C@H](c2ccc(Cl)cc2)N1Cc1ccc(Cl)cc1	u	15%
COc1ccc(S(=O)(=O)Nc2ccc3c(c2)C(=O)N([C@H](C)CO)C[C@H](C)[C@@H](CN(C)C(=O)Nc2ccc(C(F)(F)F)cc2)OCCCC[C@H](C)O3)cc1	-24%	-23%
Cc1ccc(S(=O)(=O)N2CCN(C(=O)c3cc(S(=O)(=O)N4CCOCC4)ccc3F)CC2)cc1	-16%	1%
CCOC(=O)C(=C1Nc2ccccc2N1)n1c(-c2cnccn2)nc2ccccc21	-2%	3%
O=c1[nH]c2ccccc2n1C1CCN(C(c2cccc3ccccc23)c2nnnn2Cc2ccccc2)CC1 (stereo not given)	-29%	4%
Cc1cccnc1C1=NOC(Cc2ccccc2)C(=O)N1Cc1ccccc1F (stereo not given)	1%	3%[18.4 µM]
CCOC(=O)[C@]12CCCC=C1N(Cc1ccc3c(c1)OCO3)C(=O)[C@H](CC(=O)NCCC(C)C)C2	33%[activator]	10%
OC[C@@H]1CN(Cc2ccco2)C[C@H](n2cnc3c(NC4CCCC4)ncnc32)O1	-1%	8%
Nc1ccccc1C(=O)C[C@H](N)C(=O)O	-10%&-8%	-13%
CC1(C(=O)NS(=O)(=O)c2cccc(OC(F)F)c2)CCN1C(=O)Cc1ccccc1 (stereo not given)	1%	3%
CSCCC(C(=O)Nc1c(C)cccc1C)N(C)CCc1ccccc1 (stereo not given)	-19%	12%
NC(Cc1ccc(F)cc1)c1csc(Nc2ccc(S(N)(=O)=O)cc2)n1 (stereo not given)	-15%	-17%[18.4 µM]
CC(=O)Nc1cccc(-c2cc(NC(C)=O)c3ncc(-c4ccc(C(C)=O)cc4)n3c2)c1	-14%	-4%[18.4 µM]
COc1cccc(-c2cnc3c(NC(C)=O)cc(-c4ccc(OC)c(OC)c4)cn23)c1	-12%	-8%[18.4 µM]
COc1ccc(NC(=O)c2ccc3c(c2)S(=O)(=O)N=C2CCCCCN23)cc1S(N)(=O)=O	-2%	11%
